# Bioassay records from PubChem BioAssay.
# Ecoli growth: inhibitors of Escherichia coli growth; OD600, 23 h; active compounds read low; OD600 absorbance (no concentration beside the values); 330,000 tested, 0.21% active;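 active = OD600 absorbance below the run mean of sample wells minus 3.6 SD, in any replicate, cut at about 0.56 in these data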;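 also: stock transfer was 300 nL into about 60 µL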
# B2AR ag: agonists of human beta-2 adrenergic receptor inducing internalization. P07550. Am2.2-beta2AR cells, FAP receptor internalization, flow cytometry; reference of the scale not given here. response, % (concentration not given with the values). 340,000 tested, 0.43% active. AID 504454;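 active = response above a set limit, near 3 SD of response in nonfluorescent compounds, cut at about 42% in these data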;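 also: stock transfer was 100 nL into about 11 µL; a reference agonist was the positive control; negative values mostly stem from fluorescent compounds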
# Target sequence (P07550 whole entry, looked up): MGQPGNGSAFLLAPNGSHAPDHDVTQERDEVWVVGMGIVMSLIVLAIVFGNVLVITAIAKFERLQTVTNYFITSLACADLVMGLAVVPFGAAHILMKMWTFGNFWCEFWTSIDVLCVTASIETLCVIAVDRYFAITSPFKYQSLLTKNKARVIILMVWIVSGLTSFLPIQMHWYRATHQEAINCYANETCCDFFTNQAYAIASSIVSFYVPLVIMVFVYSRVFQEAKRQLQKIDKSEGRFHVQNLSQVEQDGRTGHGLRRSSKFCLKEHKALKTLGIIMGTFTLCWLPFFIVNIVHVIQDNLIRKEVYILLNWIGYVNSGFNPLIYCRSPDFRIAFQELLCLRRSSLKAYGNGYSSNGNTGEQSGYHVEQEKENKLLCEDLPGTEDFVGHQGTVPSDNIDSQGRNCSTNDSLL
# UCH37 inh: inhibitors of human deubiquitinating enzyme UCH37; Q9Y5K5; purified proteasome/UCH37, Ub-AMC cleavage fluorescence; inhibition, % (no concentration beside the values); 330,000 tested, 0.33% active;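 active = mean of two replicates above 20%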;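 also: 0% = compound-free wells with enzyme and 100% = wells lacking proteasome; stock transfer was 100 nL into about 20 µL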
#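 Reagent: Ub-AMC substrate; assay system: Proteasome-associated human UCH37 deubiquitinase; controls: no-proteasome and no-compound wells; read-out: % inhibition of Ub-AMC cleavage fluorescence; timing: 30 min preincubation with enzyme, 25 min cleavage at room temperature; signal: AMC fluorescence from Ub-AMC cleavage, excitation 355 nm, emission 460 nm; buffer or medium: Tris-HCl pH 7.4 plus ovalbumin, ATP-MgCl2, DTT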
# ALR inh: blocks human ALR sulfhydryl oxidase activity; AID 485317; P55789; 290,000 tested, 3.8% active; inhibition, % (concentration not given with the values); purified ALR, DTT oxidation, H2O2 HRP-luminol luminescence;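 active = mean and each replicate at 75% or more; inconclusive = only one of the two met; inactive = neither met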;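 also: stock transfer was 7.5 nL into about 7.5 µL; 0% = neutral wells and 100% = wells with inactivated enzyme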
# HNF4A DNA FP: change in binding of human HNF4 alpha to DNA; HNF4a-FITC DNA binding, fluorescence polarization, 1 h; activity change, % at 10 µM; 360,000 tested, 0.3% active; AID 1224865; in the data active = activity change above about 30%, passing the limit was not always enough;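 also: controls were the assay level and a saturating level of protein; the project sought stronger binding though the title names inhibitors; some compounds called inactive have numbers as strong as hits; positive values seem to mean higher polarization but the record does not say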
# Target sequence (P41235 whole entry, looked up): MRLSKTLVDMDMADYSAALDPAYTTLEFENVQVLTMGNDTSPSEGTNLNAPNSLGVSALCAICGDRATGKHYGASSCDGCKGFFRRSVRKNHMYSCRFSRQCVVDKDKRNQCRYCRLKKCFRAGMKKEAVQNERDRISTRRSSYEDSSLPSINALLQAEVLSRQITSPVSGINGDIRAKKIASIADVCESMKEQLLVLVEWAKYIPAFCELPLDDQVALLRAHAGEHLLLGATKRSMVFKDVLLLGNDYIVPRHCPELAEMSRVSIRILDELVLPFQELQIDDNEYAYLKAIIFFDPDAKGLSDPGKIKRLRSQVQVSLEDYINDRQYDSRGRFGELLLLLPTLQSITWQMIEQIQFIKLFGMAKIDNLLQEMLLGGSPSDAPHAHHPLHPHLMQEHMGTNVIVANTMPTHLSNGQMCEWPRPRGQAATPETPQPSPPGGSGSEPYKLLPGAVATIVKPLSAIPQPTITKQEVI
# Ecoli rRNA inh: inhibitors of bacterial rRNA selective over humanized ribosomes | E. coli WT GFP vs humanized-ribosome RFP mutants, fluorescence, 24 h; active compounds read low; DMSO median 0, no signal -100 | GFP signal change (wild-type ribosome), % (concentration not given with the values) | 350,000 tested, 1.6% active;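 active = significant combined selectivity score with lowered wild-type GFP, culture density cut under 30%, mutant RFP and density less affected; inactive = any of these conditions unmet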; also: one replicate is shown; some compounds called inactive have numbers as strong as hits
# FGF22 binding: shifts melting point of recombinant human FGF22 | Q9HCT0 | recombinant FGF22 thermal shift, SYPRO orange fluorescence; percent of sucrose octasulfate shift, DMSO zero | calls only at 9.99 µM | 340,000 tested, 1.5% active | AID 651658;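 active = melting point raised past a set limit in the mean and every replicate; inconclusive = no clear call; three in four hits are not shown here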
# Target sequence (Q9HCT0 whole entry, looked up): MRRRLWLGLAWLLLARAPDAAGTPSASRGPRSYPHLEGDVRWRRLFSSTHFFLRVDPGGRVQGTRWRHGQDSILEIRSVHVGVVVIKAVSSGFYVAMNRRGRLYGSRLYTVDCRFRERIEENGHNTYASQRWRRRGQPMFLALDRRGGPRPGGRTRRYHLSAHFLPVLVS
# Ecoli rRNA inh OD600: second read-out of Ecoli rRNA inh, no call of its own (marks repeat the call); OD600 change, %; measured here: OD600 growth;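 optical density of the mix in the first replicate; 0 = DMSO median and -100 = no signal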
# Ecoli rRNA inh RFP: further read-out of Ecoli rRNA inh, marked with its call; RFP signal change, %; measured here: RFP humanized mutant strains;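 first replicate; 0 = DMSO median and -100 = no signal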
# Active calls of the source: *; i = inactive; ? = inconclusive; · = no result given. A portion of the library; the hit share may differ from the screen's.
# A first look, 4 compounds:
SMILES,Ecoli growth,B2AR ag,UCH37 inh,ALR inh,HNF4A DNA FP,Ecoli rRNA inh,Ecoli rRNA inh OD600,Ecoli rRNA inh RFP,FGF22 binding
CCN(CC)c1ccc(S(=O)(=O)N2CCOCC2)cc1NC(=O)C1CC1,0.69,2,4.4,·,0.4,-3,-21,2.5,i
COc1ccc(OC)c(CC(=O)NC(c2ccccc2)c2ccccc2)c1,0.61,18,12,-7,3.7,-1,-6,-1.4,i
CCC(CC)NC(=O)CSc1ccc(S(=O)(=O)N2CCOCC2)cn1,0.67,-2,0.1,1,3.5,-1,12,0.4,i
COc1cc2c(cc1OC)[C@@H](NC(=O)CCC1CCCCC1)[C@H](O)C2,0.72,4,1.4,·,-0.5,7,4,1.1,i

# The listing (from the top)
SMILES,Ecoli growth,B2AR ag,UCH37 inh,ALR inh,HNF4A DNA FP,Ecoli rRNA inh,Ecoli rRNA inh OD600,Ecoli rRNA inh RFP,FGF22 binding
CCN(CC)c1ccc(S(=O)(=O)N2CCOCC2)cc1NC(=O)C1CC1,0.69,2,4.4,·,0.4,-3,-21,2.5,i
COc1ccc(OC)c(CC(=O)NC(c2ccccc2)c2ccccc2)c1,0.61,18,12,-7,3.7,-1,-6,-1.4,i
CCC(CC)NC(=O)CSc1ccc(S(=O)(=O)N2CCOCC2)cn1,0.67,-2,0.1,1,3.5,-1,12,0.4,i
COc1cc2c(cc1OC)[C@@H](NC(=O)CCC1CCCCC1)[C@H](O)C2,0.72,4,1.4,·,-0.5,7,4,1.1,i
CCn1c(SCC(=O)Nc2ccc3c(c2)OCO3)nc2ccccc21,0.67,-3,5.5,5,5.5,·,·,·,·
COc1ccc(NC(=O)N(C)[C@H]2C[C@H]3c4[nH]c5ccc(-c6ccc(OC)cc6)cc5c4CCN3C(=O)[C@H]2[C@H](C)O)cc1,·,·,·,·,4.6,-5,-29,-1.5,i
CC1(C)CC2CC(C)(CN2C(=O)COC(=O)Cn2[nH]c(=O)c3ccccc3c2=O)C1 (configuration not stated),0.66,0,2.1,-12,0.3,·,·,·,·
COc1ccc(N2CCN(C(=O)C3CC(O)CN3S(=O)(=O)c3ccc([N+](=O)[O-])cc3)CC2)cc1 (configuration not stated),0.68,15,5.9,84*,0.5,16,11,-8.2,i
COc1cc(/C=C/C(=O)OCC(=O)N2CCCCCC2)ccc1OCC#N,0.72,3,-19,22,-2.2,-11,-1,3.3,i
C=CCN(Cc1ccc(Cl)s1)C(=O)CNC(=O)CNC(=O)c1ccc(Cl)cc1Cl,0.7,-10,0.5,-5,-1.1,-17,-39,0.0,i
O=C(O)CN1C(=O)/C(=C\c2cc([N+](=O)[O-])ccc2OCc2ccccc2Cl)SC1=S,0.54*,-4,8.0,?,-7.3,-12,-18,2.3,i
CCOc1ccc(N2C(=O)CC(NC3CCN(C(=O)c4cccc(Cl)c4)CC3)C2=O)cc1 (configuration not stated),0.71,5,3.9,-2,10,7,5,0.8,i
CC1CCN(C(=O)COC(=O)/C=C/c2ccco2)CC1,0.68,-7,5.1,46,-4.8,11,10,1.2,i
Cc1csc(NC(=O)COCC(=O)O)c1-c1nc2ccccc2s1,0.66,13,-1.0,65,2.7,-41,-46,-9.1,i
Cc1c(Cl)cccc1NC(=O)C1CCCN(S(C)(=O)=O)C1 (configuration not stated),0.71,5,3.2,4,-2.2,9,8,1.1,i
CCC(=O)N1CCc2cc(S(=O)(=O)CCC(=O)Nc3ccc(C)cn3)ccc21,0.7,-5,3.7,99*,-4.0,·,·,·,·
CC(=O)c1ccc(S(=O)(=O)N2Cc3ccccc3CC2C(=O)O)cc1 (configuration not stated),0.7,-9,7.7,13,-23,18,9,3.4,i
CN(C)CCCN(C(=O)COc1ccccc1)c1nc2cc3c(cc2s1)OCO3,0.68,7,0.9,19,7.2,13,11,1.8,i
Cc1ccc(CNc2ncnc3[nH]ncc23)cc1,0.66,-8,0.3,·,3.3,-4,4,-3.4,i
Cc1cccc(NC(=O)C(Cc2ccccc2)n2cccc2)c1 (configuration not stated),0.69,9,4.5,·,-6.8,6,-2,1.5,i
Cc1ccnc(NC(=O)c2ccc(OCC3CCCO3)cc2)c1 (configuration not stated),0.67,2,2.9,6,4.6,-2,-14,-1.4,i
Clc1ccc(Cc2noc(CN3CCN(c4ccccc4)CC3)n2)c(Cl)c1,0.71,1,5.2,12,-1.3,·,·,·,·
CSCC[C@H](NC(=O)c1ccc(OCC2CCCO2)cc1)c1nc2ccccc2[nH]1 (some centres not stated),0.72,1,2.2,-22,-1.2,-4,-21,-4.3,i
O=C1NC(=S)N/C1=C\c1ccc(Oc2ccc(C(F)(F)F)cc2[N+](=O)[O-])c(Cl)c1,0.69,10,4.5,7,-6.2,-3,3,-5.2,i
CC(C)(C)OC(=O)N(Cc1ccccc1)Cc1ccccc1OCc1ccc(NC(=O)C2CCC2)cc1,·,0,·,·,0.1,-6,5,4.0,i
CC(C)c1ccc(S(=O)(=O)N2CCN(C(C)C(=O)NC3CCCC3)CC2)cc1 (configuration not stated),0.69,-4,1.9,·,2.0,-9,-19,3.7,i
C#CCOC(=O)Nc1ccc(=O)n(Cc2c(Cl)cccc2Cl)c1,0.72,-1,-12,-14,0.1,·,·,·,·
COC(=O)c1ccc2c(=O)n(CC3CCCO3)c(SCC(=O)Nc3ccccc3OC)nc2c1 (configuration not stated),0.69,0,5.3,-4,1.3,·,·,·,·
O=C(CCN1C(=O)/C(=C/c2cccc(Br)c2)SC1=S)Nc1cccnc1,0.7,-1,11,-7,0.4,4,1,1.0,i
COC(=O)c1nc2ccc(C)cn2c1F,0.76,4,0.2,·,3.5,16,11,-0.8,i

# Three compounds already listed, ordered by the value under Ecoli growth, largest number first.
SMILES,Ecoli growth,B2AR ag,UCH37 inh,ALR inh,HNF4A DNA FP,Ecoli rRNA inh,Ecoli rRNA inh OD600,Ecoli rRNA inh RFP,FGF22 binding
C#CCOC(=O)Nc1ccc(=O)n(Cc2c(Cl)cccc2Cl)c1,0.72,-1,-12,-14,0.1,·,·,·,·
Clc1ccc(Cc2noc(CN3CCN(c4ccccc4)CC3)n2)c(Cl)c1,0.71,1,5.2,12,-1.3,·,·,·,·
CC(C)c1ccc(S(=O)(=O)N2CCN(C(C)C(=O)NC3CCCC3)CC2)cc1 (configuration not stated),0.69,-4,1.9,·,2.0,-9,-19,3.7,i

# New compounds follow.
SMILES,Ecoli growth,B2AR ag,UCH37 inh,ALR inh,HNF4A DNA FP,Ecoli rRNA inh,Ecoli rRNA inh OD600,Ecoli rRNA inh RFP,FGF22 binding
Cc1ccc(NC(=O)C2(C)CCN2CCc2ccccc2)cc1 (configuration not stated),·,·,·,·,2.8,-22,-57,-3.6,i
COc1ccc(CCC(C)NCc2ccc(F)cc2)cc1 (configuration not stated),0.67,3,-1.0,-2,-0.3,7,4,-3.9,i
O=C(COc1ncnc2sccc12)NC1CCCCC1,0.67,-1,-0.3,·,-3.1,6,9,-1.0,i
CCOC(=O)c1csc(-n2nc(C)cc2C(F)(F)F)n1,0.69,2,5.8,-3,-4.5,8,7,2.1,·
Cc1ccc(CN2CCN(/N=C/c3ccc(C(=O)O)cc3)CC2)c(C)c1,·,1,·,8,4.9,-6,-6,-1.9,i
CCOc1cccc(C2C(C(=O)c3cccs3)=C(O)C(=O)N2Cc2cccnc2)c1 (configuration not stated),0.67,10,11,8,-3.0,-5,-12,-1.3,i
Cc1c(C(=O)NCc2ccc3c(c2)OCCO3)sc(=O)n1Cc1ccc(C(=O)N(C)C)cc1,·,·,·,·,-1.6,6,5,-0.2,i
COc1nc(-c2ccccc2)ccc1-c1noc(-c2cccs2)n1,0.69,6,-32,-16,4.5,·,·,·,·
COc1cc(CSc2nc(-c3ccccc3)cc(=O)[nH]2)cc(OC)c1,0.72,0,-3.6,3,-2.6,·,·,·,·
CN(Cc1nnc(SCC(=O)NCCc2ccccc2)n1C)S(=O)(=O)c1ccccc1,0.71,-4,2.2,0,0.2,·,·,·,·
CCOC(=O)N1CC(C)N(C(=S)Nc2ccccc2)CC1C (configuration not stated),0.69,-11,2.7,·,4.2,2,3,-1.8,i
CCOC(=O)C1=C(COC(=O)/C=C/c2ccc(OC)c(OC)c2)NC(=O)NC1C (configuration not stated),0.61,5,-31,·,2.0,-4,5,0.3,i
COc1ccccc1N1CCN(S(=O)(=O)c2ccc(F)cc2)CC1,0.66,2,2.9,39,-1.6,·,·,·,·
CC(C)c1ccc(NC(=O)Nc2nc(C(N)COCc3ccccc3)cs2)cc1 (configuration not stated),·,·,·,·,0.5,-48,-75,-15,i
Cc1ccc(C(=O)Nc2ccccc2N2CCCC2)cc1S(=O)(=O)N1CCOCC1,0.69,5,2.7,98*,5.9,-9,-14,1.1,i
Cc1[nH]c2ccccc2c1/C=N\NC(=O)Cn1nnc(-c2ccccc2)n1,·,3,·,-18,-3.3,5,16,-4.7,i
CN1C[C@@H]2C(c3ccc(Cl)nc3)C3(c4ccc(C#N)cc4)CC2(C3)[C@H]1c1ccccc1 (some centres not stated),·,21,0.3,-33,7.8,5,-10,-3.8,i
COc1cccc(OCCCn2ccnc2)c1,0.67,6,2.0,-2,-0.8,4,6,-0.8,i
COc1ccccc1CN1C[C@@H]2C[C@@H](c3ccc(C)cc3)N3CCC[C@@]23C1=O,0.69,4,3.0,-2,2.4,-4,-11,0.4,i
COc1cc(OC)cc(N(C(=O)CNC(=O)c2cccs2)C(C(=O)NCC2CCCO2)c2ccccc2)c1 (configuration not stated),0.65,-5,2.9,-3,3.0,3,4,-0.6,i

# Some entries already given, showing only UCH37 inh and Ecoli rRNA inh.
Molecule	UCH37 inh	Ecoli rRNA inh
COc1ccccc1N1CCN(S(=O)(=O)c2ccc(F)cc2)CC1	2.9	·
COc1cccc(OCCCn2ccnc2)c1	2.0	4

# Other structures:
SMILES,Ecoli growth,B2AR ag,UCH37 inh,ALR inh,HNF4A DNA FP,Ecoli rRNA inh,Ecoli rRNA inh OD600,Ecoli rRNA inh RFP,FGF22 binding
COc1cc2c(cc1O)C(Cc1ccc(O)cc1)[N+](C)([O-])CC2 (configuration not stated),0.65,1,4.3,26,0.8,16,-2,4.7,i
COc1ccc(C(CNC(=O)c2[nH]c(C)c(C(C)=O)c2C)N2CCOCC2)cc1 (configuration not stated),0.69,-22,1.7,-7,2.8,3,0,0.2,i
COc1ccc(CCNC(=S)NC2CCN(Cc3ccccc3)CC2)cc1,0.68,13,1.3,8,2.6,1,-14,0.9,i
O=C(O)CCc1nc(-c2ccc(Cl)cc2)no1,0.77,4,2.1,-8,5.0,·,·,·,·
Cc1sc2nc(CN3CCCC3)nc(N3CCN(S(=O)(=O)c4ccccc4)CC3)c2c1C,0.7,4,-1.9,-2,8.6,·,·,·,i
O=C(c1ccc(Br)o1)N1CCN(c2ccccc2F)CC1,0.66,-11,0.3,55,2.4,·,·,·,·
CCC(C)NS(=O)(=O)c1ccc(NC(=O)c2cccs2)cc1 (configuration not stated),0.7,-11,4.7,11,-1.7,-2,-3,-1.0,i
Cc1nn(CCC(N)=S)c2nc(-c3cccs3)cc(C(F)(F)F)c12,0.68,-4,0.1,0,-2.6,2,-4,0.7,i
CCOc1ccc(NC(=O)c2ccccn2)cc1,0.7,13,1.9,-9,-0.7,11,13,-4.3,i
